Kir21 inh: inhibitors of mouse Kir2.1 inward-rectifier potassium channel | AID 1672, 2009 | B-score at 10 µM | HEK293-Kir2.1, FluxOR thallium flux fluorescence; hits give low values | 310,000 tested, 0.85% active;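 active = fluorescence ratio B-score at or below minus 3 SD of library scores, with starting-brightness B-score within 2 SD, cut at about -4.2 in these data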;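 note: channel flux triggered by added potassium and thallium sulfate stimulus; B-score of peak minus minimum fluorescence over baseline after thallium stimulus; more negative B-score means stronger Kir2.1 block with less thallium influx; some compounds called inactive have numbers as strong as hits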
Target sequence (P35561 whole entry, looked up): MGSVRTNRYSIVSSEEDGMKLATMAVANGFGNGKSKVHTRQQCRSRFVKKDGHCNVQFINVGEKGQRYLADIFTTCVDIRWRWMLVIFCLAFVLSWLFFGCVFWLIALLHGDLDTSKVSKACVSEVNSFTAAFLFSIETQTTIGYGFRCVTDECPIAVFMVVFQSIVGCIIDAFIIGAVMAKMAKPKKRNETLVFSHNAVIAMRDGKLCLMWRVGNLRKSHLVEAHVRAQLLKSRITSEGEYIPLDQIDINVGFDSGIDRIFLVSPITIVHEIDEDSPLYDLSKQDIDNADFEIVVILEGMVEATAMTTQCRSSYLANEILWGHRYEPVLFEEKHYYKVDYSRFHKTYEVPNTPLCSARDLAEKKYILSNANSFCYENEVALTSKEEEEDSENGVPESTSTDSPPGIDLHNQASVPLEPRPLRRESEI
The depositor's hits bear a star. Some of the compounds tested; most or all hits stand in other tables.

What do the screens show for `CCC(C)NC(=O)c1ccc(CN2CCc3ccccc3C2)cc1` (stereo not given)?
Kir21 inh: 0.11

Results for CC1CCCCN1S(=O)(=O)c1ccc(S(=O)(=O)N2CCN(c3ccc(F)cc3)CC2)cc1 (stereo not given) ?
Kir21 inh: -0.14

How did O=C(NCCc1ccccc1)C(c1cccs1)N(C(=O)CCl)c1ccc(Cl)cc1 (stereo not given) do in these assays?
Kir21 inh: -2.47

How did Cc1ccc(-c2nnc(SCC(=O)NC3CC3)n2N)cc1 do in these assays?
Kir21 inh: -2.74

Results for CSc1nc2sc3c(c2c(=O)n1C)CCC(C)C3 (stereo not given) ?
Kir21 inh: 0.26

What do the screens show for `CCN(CC)S(=O)(=O)c1cc(NC(=O)CCNC(=O)c2ccccc2Cl)ccc1C`?
Kir21 inh: -0.1

How did COc1cccc(C(=O)O/N=C2\CCS(=O)(=O)c3sccc32)c1 do in these assays?
Kir21 inh: -0.75

Results for COc1ccc(N(CC(=O)NCc2ccccc2OC)S(=O)(=O)c2c(C)nn(C)c2C)cc1 ?
Kir21 inh: 0.14

How did CCCN(C#N)c1nc(NCC)nc(NC(C)C)n1 do in these assays?
Kir21 inh: -1.79

What do the screens show for `CS(=O)(=O)N1CCN(c2ccccc2NC(=O)c2ccc3ccccc3c2)CC1`?
Kir21 inh: 1.07

What do the screens show for `CCC(C)C1=CC(=Nc2c(C)n(C)n(-c3ccccc3)c2=O)C=C(C(C)CC)C1=O` (stereo not given)?
Kir21 inh: -1.4

What do the screens show for `COc1cc(OC)cc(C(=O)NCCNC(=O)c2ccco2)c1`?
Kir21 inh: 0.02

Results for O=C1CC2(CCCC2)Oc2ccccc21 ?
Kir21 inh: 0.79

Results for CCc1cccc(NS(=O)(=O)c2cccc3cccnc23)c1 ?
Kir21 inh: -0.5

How did CC(C)CC(NC(=O)OC(C)(C)C)c1cn([C@@H](CCC(=O)OC(C)(C)C)C(=O)N2CCN(C(=O)OC(C)(C)C)CC2)nn1 (stereo not given in full) do in these assays?
Kir21 inh: -0.4

Results for CCOc1ccc(C(=O)NCC(=O)OCc2c(F)cccc2Cl)cc1OCC ?
Kir21 inh: 1.44

How did O=S(=O)(c1ccc(S(=O)(=O)N2CCCC2)cc1)N1CCCCCC1 do in these assays?
Kir21 inh: -0.03

Results for Cc1ccc2nc(N3CCN(c4cccc(C)c4C)CC3)c3nnnn3c2c1 ?
Kir21 inh: -0.54

How did O=C(N/N=C/c1ccccn1)c1ccc([N+](=O)[O-])cc1 do in these assays?
Kir21 inh: -0.2

What do the screens show for `COCCOCCn1cnc2ccccc21`?
Kir21 inh: 0.01

How did OCC[C@@H]1C[C@@H](O)[C@H](O)[C@@]2(CCCO2)O1 do in these assays?
Kir21 inh: 0.41

Results for CCc1c(C)nc2ncnn2c1N1CCCC(C(=O)NCc2ccc3c(c2)OCO3)C1 (stereo not given) ?
Kir21 inh: -1.11

What do the screens show for `Cc1ccccc1C=Nc1ccccc1C(N)=O`?
Kir21 inh: 1.07

What do the screens show for `COCCN(CCOC)Cc1c(C)[nH]c2ccccc2c1=O`?
Kir21 inh: 0.49

Results for COc1ccc(NC(=O)Nc2ccc(Br)cn2)cc1 ?
Kir21 inh: 0.92

What do the screens show for `Cc1ccc(COC(=O)CCc2nc3ccccc3c(=O)[nH]2)cc1`?
Kir21 inh: -0.09

What do the screens show for `CCCOc1cccc(C(=O)NC(=S)Nc2cccc(NC(=O)c3ccccc3Cl)c2)c1`?
Kir21 inh: 0.04

Results for CCC(C)NC(=O)c1ccccc1NC(=O)CN(c1cc(C)ccc1OC)S(C)(=O)=O (stereo not given) ?
Kir21 inh: 0.4

How did CCc1nn(CCCC(=O)NCc2ccc(OC(C)C)cc2)c(=O)c2cc3occc3n12 do in these assays?
Kir21 inh: 0.68

What do the screens show for `CCc1ccccc1N(C(=O)CCC(=O)Nc1cc(C)on1)C(C(=O)NC1CCCC1)c1ccco1` (stereo not given)?
Kir21 inh: 1.97

How did CC1=NN(c2ccc(N)cc2)C(=O)C1 do in these assays?
Kir21 inh: 1.22

How did CCOc1ccc(N(CC(=O)NCc2cccs2)S(=O)(=O)c2c(C)noc2C)cc1 do in these assays?
Kir21 inh: 0.53

What do the screens show for `O=C(c1cc(-c2ccc3c(c2)OCO3)on1)N1CCN(c2ccccc2)CC1`?
Kir21 inh: -1.85

Results for CCC1(c2ccccc2)NC(=O)N(CC(=O)Nc2ccc(N3CCCC3)cc2C)C1=O (stereo not given) ?
Kir21 inh: 0.11

How did O=C(COC(=O)C1CC1)NCc1ccccc1Cl do in these assays?
Kir21 inh: 0.06

Results for Cn1c(=O)[nH]c(=O)c2c1nc(N1CCCCCC1)n2CCSc1nc2ccccc2[nH]1 ?
Kir21 inh: 1.42

Results for Cc1ccc(Cl)cc1OCC(=O)NCCOC(=O)Nc1sc(=S)n(C)c1C ?
Kir21 inh: 0.72

How did Cc1ccc(Nc2nc(-c3sc(NC(=O)c4ccc([N+](=O)[O-])cc4)nc3C)cs2)cc1 do in these assays?
Kir21 inh: -0.08

Results for CCCS(=O)(=O)c1nc(S(=O)(=O)c2ccc(C)cc2)c(N2CCOCC2)s1 ?
Kir21 inh: 0.06

How did O=C(Nc1nc(-c2ccc3c(c2)OCO3)cs1)C1CC1 do in these assays?
Kir21 inh: 2.63

Results for O=C(CN1CCN(Cc2ccccc2)CC1)Nc1nnc(C(F)(F)F)s1 ?
Kir21 inh: 0.74

How did CC(C)Cn1c(N)c(C(=O)COC(=O)c2cc(C(F)(F)F)nc3c(C(F)(F)F)cccc23)c(=O)n(C)c1=O do in these assays?
Kir21 inh: 0.8

Results for O=C(Oc1ccc(Br)cc1C(=S)N1CCOCC1)c1cccc([N+](=O)[O-])c1 ?
Kir21 inh: 0.03

How did CCOC(=O)c1csc(NC(=O)c2cccs2)n1 do in these assays?
Kir21 inh: 1.75

How did COc1ccc(CCNC(=O)CCN2C(=O)COc3ccccc32)cc1OC do in these assays?
Kir21 inh: 0.95

How did COC(=O)CNC(=O)c1ccc(C)s1 do in these assays?
Kir21 inh: 2.12

What do the screens show for `Cc1c(C(=O)OC(C)C)nnn1-c1nonc1N`?
Kir21 inh: -0.05

How did Cc1ccc(C)c(OCC(=O)Nc2cc(NC(=O)COc3cc(C)ccc3C)cc(C(=O)O)c2)c1 do in these assays?
Kir21 inh: 0

How did C=CCOc1c(CNc2cccc(C(=O)O)c2)cccc1OCC do in these assays?
Kir21 inh: -0.14

Results for Cc1nc2ccc(Oc3ccccc3)cc2s1 ?
Kir21 inh: -0.78

Results for CCCCOC(=O)/C=C\C(=O)NC(N)=O ?
Kir21 inh: 1.02

How did S=C(NNc1ccnc2cc(Cl)ccc12)Nc1ccc(Cl)cc1Cl do in these assays?
Kir21 inh: -0.2

How did Cc1cc(NC(=O)COC(=O)c2c(C)noc2C)ccc1Br do in these assays?
Kir21 inh: 1.08

What do the screens show for `CCn1c(SCc2nc(N)nc(N3CCCCC3)n2)nc2c1c(=O)n(C)c(=O)n2C`?
Kir21 inh: 0.68

What do the screens show for `Cc1ccc(C(=O)NC(=S)Nc2ccccc2C(F)(F)F)cc1C`?
Kir21 inh: 0.47

How did O=C(N/N=C/c1ccncc1)c1nc(-c2ccccc2)n2c1CCCCC2 do in these assays?
Kir21 inh: -1.37

How did Cc1ccc(C(=O)Nc2sc3c(c2C#N)CCCCC3)cc1C do in these assays?
Kir21 inh: -1.93

Results for CCC(CC)NC(=O)COC(=O)c1ccc(NS(=O)(=O)c2ccc3c(c2)OCCO3)cc1 ?
Kir21 inh: -1.6

What do the screens show for `COc1ccc(CCNC(=O)COC(=O)c2cccs2)cc1OC`?
Kir21 inh: -1.04

What do the screens show for `O=C(CCn1[nH]c(=O)c2ccccc2c1=O)OC1CCCCC1`?
Kir21 inh: -0.18

Grouped by structure, the entries above with a Cl atom.
How did O=C(NCCc1ccccc1)C(c1cccs1)N(C(=O)CCl)c1ccc(Cl)cc1 (stereo not given) do in these assays?
Kir21 inh: -2.47

What do the screens show for `CCN(CC)S(=O)(=O)c1cc(NC(=O)CCNC(=O)c2ccccc2Cl)ccc1C`?
Kir21 inh: -0.1

Results for CCOc1ccc(C(=O)NCC(=O)OCc2c(F)cccc2Cl)cc1OCC ?
Kir21 inh: 1.44

What do the screens show for `CCCOc1cccc(C(=O)NC(=S)Nc2cccc(NC(=O)c3ccccc3Cl)c2)c1`?
Kir21 inh: 0.04

How did O=C(COC(=O)C1CC1)NCc1ccccc1Cl do in these assays?
Kir21 inh: 0.06

Results for Cc1ccc(Cl)cc1OCC(=O)NCCOC(=O)Nc1sc(=S)n(C)c1C ?
Kir21 inh: 0.72

How did S=C(NNc1ccnc2cc(Cl)ccc12)Nc1ccc(Cl)cc1Cl do in these assays?
Kir21 inh: -0.2

More compounds
Results for CN(C)C(=O)c1cn(-c2ccc(Cl)cc2)c(=O)c2ccccc12 ?
Kir21 inh: -0.42

How did COc1ccccc1C(=O)NC(=S)N1CCCc2ccccc21 do in these assays?
Kir21 inh: -0.19

How did CC1CCCCC1NC(=O)COC(=O)COc1ccccc1Cl (stereo not given) do in these assays?
Kir21 inh: 0.13

Results for O=C(NCC1CCCO1)c1ccc(S(=O)(=O)N2CCCCC2)cc1 (stereo not given) ?
Kir21 inh: 2.87

How did c1cnc2ccc3ncccc3c2c1 do in these assays?
Kir21 inh: -0.98

What do the screens show for `C=CCOc1cccc(C2/C(=C(/O)c3ccc(F)cc3)C(=O)C(=O)N2CCN2CCOCC2)c1` (stereo not given)?
Kir21 inh: -1.29

How did Cc1cc(Br)ccc1SCC(=O)N1CCN(S(=O)(=O)c2ccccc2)CC1 do in these assays?
Kir21 inh: 0.67

Results for O=C(CCN1CCN(CCO)CC1)Nc1ccc(F)c(F)c1 ?
Kir21 inh: 0.71

How did O=C1CCCN1c1ccc(S(=O)(=O)N2CCN(c3ccccn3)CC2)cc1 do in these assays?
Kir21 inh: 1.23

How did COC(=O)C1=C(C)Nc2ncnn2C1c1ccccn1 (stereo not given) do in these assays?
Kir21 inh: 2.14

Results for Cc1cccc(C(C(=O)NC2CCCC2)N(C(=O)c2csnn2)C2CCCC2)c1 (stereo not given) ?
Kir21 inh: -0.02

Results for COCC(C)NC(=O)CSc1nc2nn(-c3ccccc3)c(=O)c-2c2n1CCCCC2 (stereo not given) ?
Kir21 inh: -0.24

What do the screens show for `O=C(NC1CCCCC1)N(C1=NCCCCC1)c1ccc(Br)cc1`?
Kir21 inh: 0

How did N#Cc1ccccc1CSC1=NCCS1 do in these assays?
Kir21 inh: 0

Results for N#CCSc1nc2c(c(=O)n1Cc1ccccc1)C1(CCCC1)Cc1ccccc1-2 ?
Kir21 inh: -0.08

What do the screens show for `Cc1ccc([N+](=O)[O-])cc1N(CC(=O)NC1CCCC1)S(C)(=O)=O`?
Kir21 inh: 0.03

Results for Cc1c(C(=O)N2CCOCC2)c(S(=O)(=O)Nc2ccc(C(C)C)cc2)c(C)n1C ?
Kir21 inh: -0.06

What do the screens show for `COCCn1c(SCC(=O)Nc2nnc(C)s2)nnc1-c1ccco1`?
Kir21 inh: 0.74

Results for CCN1CCN(c2nc3ccccn3c(=O)c2/C=C(\C#N)S(=O)(=O)c2ccccc2)CC1 ?
Kir21 inh: -0.93

What do the screens show for `CCSc1nnc(NC(=O)CSc2nnc(CNC(=O)c3cc(OC)c(OC)c(OC)c3)o2)s1`?
Kir21 inh: 0.16

How did O=C(/C=C/c1ccccc1)Nc1ccc(S(=O)(=O)N2CCOCC2)cc1 do in these assays?
Kir21 inh: 1

Results for CC(=O)Nc1ccc(NC(=S)NC(=O)c2cc3ccccc3o2)cc1 ?
Kir21 inh: 0.17

Results for N#Cc1ccc2ccn(CC(=O)NCc3ccccc3)c2c1 ?
Kir21 inh: 1.31

Results for O=C(Nc1ccc(N2CCOCC2)cc1)Nc1ccc2nsnc2c1 ?
Kir21 inh: -0.24

How did Nc1c(N(CCC2=CCCCC2)C(=O)C2CC2)c(=O)[nH]c(=O)n1Cc1ccccc1 do in these assays?
Kir21 inh: -1.01

What do the screens show for `COc1cc(OC)c(NC(=O)Cn2cnc3sc(C)c(S(=O)(=O)N4CCOCC4)c3c2=O)cc1Cl`?
Kir21 inh: -0.35

How did CC(C)=C1C2CCC1C1C(=O)N(NC(=O)COc3ccc(Cl)c(C)c3)C(=O)C21 (stereo not given) do in these assays?
Kir21 inh: 0.04

How did Cc1ccc(C(=O)NNC(=O)c2ccc3ccccc3c2O)cc1 do in these assays?
Kir21 inh: 1.37

What do the screens show for `CCOC(=O)C1=C(N)N2C(=O)CSC2=C(C(=O)OC)C1`?
Kir21 inh: 2.42

Results for CC(=O)C(Cc1ccc(Cl)nc1)(Cc1ccc(Cl)nc1)C(C)=O ?
Kir21 inh: -0.23

How did Cc1nc2cc(-c3ccccc3)sc2c(=O)n1N do in these assays?
Kir21 inh: 0.25

Results for Cc1ccc(NC(=O)c2ccc(CSc3nnc(C)s3)cc2)cc1 ?
Kir21 inh: 1.04

How did O=C(N/N=C/C=C/c1ccccc1)c1ccc(Br)cc1 do in these assays?
Kir21 inh: -0.06

What do the screens show for `Cc1ccc(CNC(=O)C2CCN(S(=O)(=O)c3cccs3)CC2)o1`?
Kir21 inh: 1.52

Results for CC(NC(=O)c1ccc2c(c1)OCO2)C1CCCO1 (stereo not given) ?
Kir21 inh: 0.03

What do the screens show for `CC(=O)NC1(C(F)(F)F)C(=O)Nc2c1c(=O)[nH]c(=O)n2Cc1ccco1` (stereo not given)?
Kir21 inh: -0.63

Results for COc1cc(CNCc2ccco2)cc(OC)c1O ?
Kir21 inh: -0.67

How did N#Cc1c2n(c(=S)n(-c3ccccn3)c1=O)CCCCC2 do in these assays?
Kir21 inh: 0.36

What do the screens show for `CCOC(=O)c1cc(C(=O)OCC)c(=O)[nH]c1N1CCCCC1`?
Kir21 inh: -0.01

What do the screens show for `COCCNC(=O)c1cn(C)c2ccc(S(=O)(=O)N3CCCC3)cc2c1=O`?
Kir21 inh: 0.87

What do the screens show for `CC(NC(=O)NC(=O)c1ccc(Cl)cc1Cl)C1CC1` (stereo not given)?
Kir21 inh: -0.22

What do the screens show for `COCCCNC(=O)c1cc(Sc2ccc(F)cc2)nc2ccccc12`?
Kir21 inh: -0.01

Results for COc1ccc(C2OC(=O)CC2C(=O)NCc2ccc(C)cc2)cc1OC (stereo not given) ?
Kir21 inh: -0.65
